Assay outcomes deposited in PubChem BioAssay by ICCB-Longwood Screening Facility, Harvard Medical School.
Mtb MenB inh = M. tuberculosis MenB inhibitors, primary screen, biochemical, absorbance. hit rate 0.43% among 100,000. inhibition, %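 (about 12 µg/mL by stock and volumes)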. AID 540299, 2011. MenB enzyme assay, absorbance read-out; some hits fall short of the stated cut;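 active = mean of two replicates above 30%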;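 note: 0% = no compound and 100% = wells with inactive enzyme; the first replicate is given; strong numbers were not always called active; inactives centre near -10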
Target sequence (P9WNP5 whole entry, looked up): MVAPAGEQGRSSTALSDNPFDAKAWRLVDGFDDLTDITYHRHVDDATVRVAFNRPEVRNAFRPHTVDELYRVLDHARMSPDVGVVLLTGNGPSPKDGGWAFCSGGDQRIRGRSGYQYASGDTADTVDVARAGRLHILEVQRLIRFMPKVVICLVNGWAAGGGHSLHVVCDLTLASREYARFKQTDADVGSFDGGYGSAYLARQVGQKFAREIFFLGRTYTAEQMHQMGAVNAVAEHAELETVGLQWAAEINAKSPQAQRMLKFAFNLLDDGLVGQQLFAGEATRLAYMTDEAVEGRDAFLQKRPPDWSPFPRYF
Polio RdRp inh = poliovirus RdRp elongation inhibitors, primary screen, biochemical, fluorescence polarization, total intensity; Genome polyprotein (Poliovirus type 1 (strain Mahoney)), P03300; poliovirus polymerase elongation; hits give low values; % elongation, % (compound at 16.7 µg/mL); hit rate 0.66% among 150,000; in the data active = % elongation below about 90%; note: some results filed as inactive read as strong as hits
Target sequence (P03300 1749-2209 limits assumed): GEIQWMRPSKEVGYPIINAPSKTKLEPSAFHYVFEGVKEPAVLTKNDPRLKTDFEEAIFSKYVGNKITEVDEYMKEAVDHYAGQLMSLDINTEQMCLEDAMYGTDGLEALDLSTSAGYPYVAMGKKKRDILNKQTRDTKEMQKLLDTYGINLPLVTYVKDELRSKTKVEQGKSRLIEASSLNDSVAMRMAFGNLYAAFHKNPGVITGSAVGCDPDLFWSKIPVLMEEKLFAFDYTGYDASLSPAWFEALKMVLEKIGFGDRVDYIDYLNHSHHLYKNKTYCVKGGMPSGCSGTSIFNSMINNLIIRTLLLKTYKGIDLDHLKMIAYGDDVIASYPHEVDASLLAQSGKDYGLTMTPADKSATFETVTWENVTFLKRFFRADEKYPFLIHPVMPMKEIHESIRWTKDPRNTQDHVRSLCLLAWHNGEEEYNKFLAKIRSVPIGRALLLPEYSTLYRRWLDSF
Mtb MbtI inh = MbtI salicylate synthase inhibitors, primary screen, biochemical, fluorescence intensity | P9WFX0 | purified MbtI enzyme, fluorescence intensity read-out | inhibition, %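 (about 17 µg/mL by stock and volumes)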 | hit rate 0.89% among 100,000;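 active = above 50% in both replicates, above 80% if mildly self-fluorescent; inactive = the rest, strongly fluorescent compounds included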;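 note: 0% = mean of negative and 100% = mean of positive controls; one replicate is shown; some compounds called inactive have numbers as strong as hits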
Polio RdRp inh intensity = also measured in Polio RdRp inh; calls as there; % elongation; measured here: total intensity read-out; formula for this scale not given here;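 total fluorescence in place of polarization; lower means less elongation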
* = called active by the depositor; / = no result given; & = joins results of further samples; ! = repeats disagree.

Below each SMILES – Mtb MenB inh, Polio RdRp inh, Polio RdRp inh intensity, Mtb MbtI inh
1: Cc1nn(-c2ccccc2)c(N2CCCC2)c1/C=N/NC(=O)C1CC1
  -4.8, 103.0, 105.0, 4.8
2: CSCCC1COC(c2cccn2Cc2ccccc2)=N1 (stereo unspecified)
  2.0, 100.0, 102.0, -6.5
3: Cc1ccc(/C=C/S(=O)(=O)NCC(=O)O)cc1
  0.1, 98.0, 98.0, 6.8
4: N#Cc1ccc(C(=O)Nc2c(C(=O)c3cccs3)oc3ccccc23)cc1
  -21.4, 101.0, 106.0, -9.7
5: Cc1nc(SCC(=O)O)c2c3c(sc2n1)CCCC3
  3.9, 103.0, 106.0, 24.2
6: O=C(CC1SC(=O)NC1=O)Nc1cccc(C(F)(F)F)c1 (stereo unspecified)
  -9.5, 95.0, 111.0, -7.5
7: O=C1c2ccccc2C(=O)C1C(c1ccccc1)C1C(=O)c2ccccc2C1=O
  -25.0, 91.0, 96.0, 22.5
8: CC(c1nc2ccccc2c(=O)[nH]1)N(C)CCOc1ccc(Cl)cc1 (stereo unspecified)
  1.5, 116.0, 122.0, -2.7
9: O=C(CSc1cccc[n+]1[O-])NC(=O)c1ccc(OC(F)F)cc1
  -5.3, 109.0, 117.0, -3.1
10: CC(OC(=O)c1ccc(O)cc1)C(=O)c1ccccc1 (stereo unspecified)
  -10.2, 105.0, 107.0, -0.7
11: CC(=O)N(C)CCc1ccc(C)[n+]([O-])c1
  0.3, 105.0, 98.0, /
12: O=C(NCCc1ccccc1)c1cc(-c2ccccc2)c(N2CCOCC2)s1
  -27.6, 102.0, 101.0, 19.7
13: CC1(C)CC(=O)C2=C(C1)NCN(Cc1ccccc1)C2
  -3.0, 101.0, 102.0, 21.2
14: Cc1ccc(-n2ccnc(NCCc3ccc(S(N)(=O)=O)cc3)c2=O)cc1
  -0.5, 101.0, 104.0, 10.3
15: CCc1nnc2c3c(-c4ccccc4)csc3ncn12
  /, 102.0, 108.0, -11.7
16: Cc1nc(=S)[nH]c(C)c1CCC(=O)NCc1ccco1
  -33.8, 96.0, 99.0, 47.8
17: O=C(c1cccc2c1C(=O)N(C1CCCCC1)C2)N1CCN(c2ccc(F)cc2)CC1
  -10.0, 103.0, 97.0, -0.1
18: O=C(Nc1ccccc1)N1CCCCC1c1cccnc1 (stereo unspecified)
  -14.2, 99.0, 104.0, 2.2
19: CC(C)(O)C#Cc1ccc(C(=O)N2CCCC2C(=O)O)s1 (stereo unspecified)
  -8.6, 98.0, 101.0, 18.7
20: CC1(C(=O)NC2CCCCCC2)Cc2ccccc2C(=O)N1Cc1ccco1 (stereo unspecified)
  -18.7, 104.0, 106.0, -2.8
21: Cc1cc(NC(=NC2CC2)c2ccccc2F)n(-c2ccccc2)n1
  -13.0, 103.0, 102.0, 6.0
22: CC(C)(C)C(=O)Nc1sccc1C#N
  -28.5, 106.0, 106.0, 2.0
23: O=C(NCc1ccc(F)cc1)[C@H](CSCc1ccccc1)N1Cc2ccccc2C1=O
  -33.5, 99.0, 97.0, -8.2
24: Cc1c2cnn(-c3ccccc3)c(=O)c2c(C)n1C(C)C(=O)NCCN1CCCC1 (stereo unspecified)
  12.4, 104.0, 104.0, 1.1
25: CC(C)(C)C(=O)CC(O)(c1ccccc1)C(F)(F)F (stereo unspecified)
  -33.9, 102.0, 101.0, -10.6
26: CCSc1nc2ccccc2c(=O)n1Cc1ccco1
  -45.5, 101.0, 99.0, 7.1
27: CCCN1CCN(C(=O)CC(NC(=O)c2ccccc2Cl)c2ccccc2)CC1 (stereo unspecified)
  4.8, 101.0, 105.0, -4.7
28: CCOC(=O)c1cc(NS(=O)(=O)c2ccccc2)ccc1N1CCCCC1
  5.9, 101.0, 99.0, -3.5
29: O=C(c1ccccc1)N1CC2CC(C1)c1cccc(=O)n1C2 (stereo unspecified)
  3.4, 98.0, 105.0, /
30: O=C(CCN1C(=O)C2C3C=CC(C3)C2C1=O)NCCc1ccccc1 (stereo unspecified)
  -0.6, 102.0, 96.0, 10.7
31: CCc1ccccc1NC(=O)CCn1c(=O)c2cccn2c2ccccc21
  -10.6, 103.0, 106.0, -8.5
32: O=C(c1c[nH]c2ccccc2c1=O)N(c1ccccc1)c1ccccc1
  -7.3, 102.0, 105.0, /
33: CCc1ccccc1Nc1nc(N)nc(CNc2ccccc2)n1
  5.3, 101.0, 104.0, -2.1
34: O=C(O)CCC(=O)n1ncc2ccccc21
  -19.2, 101.0, 103.0, -9.1
35: CCOC(=O)C1CCCN(Cc2cccc(C)c2)C1 (stereo unspecified)
  -7.1, 102.0, 103.0, -14.1
36: N#Cc1ccc(C(=O)NC2CCS(=O)(=O)C2)cc1 (stereo unspecified)
  -6.8, 102.0, 106.0, /
37: CCCC(=O)c1cc(F)c(N2CCN(C)CC2)cc1C
  5.0, 103.0, 112.0, /
38: O=C(CSc1ccc(S(=O)(=O)N2CCCCC2)cn1)NCc1ccco1
  -14.0, 104.0, 106.0, 9.7
39: CCNc1nc(=S)nc(NCC)[nH]1
  8.2, 99.0, 99.0, 41.0
40: Cc1noc(C)c1Cn1cnc2scc(-c3ccc(Br)cc3)c2c1=O
  -1.2, 101.0, 110.0, -4.0
41: N=c1sccn1Cc1ccccc1
  -31.4, 105.0, 109.0, -2.8
42: CCSc1nc2sc3c(c2c2n[nH]c(=S)n12)CCCC3
  -49.2, 102.0, 106.0, 36.7
43: CC(C)OC(=O)c1cc(C(=O)O)c(C(=O)OC(C)C)cc1C(=O)O
  -32.5, 98.0, 100.0, -8.0
44: O=C(O)c1ccc(CSc2ccccn2)cc1
  -6.0, 102.0, 103.0, /
45: C=CCn1c(NCCO)nc2sc3c(c2c1=O)CCC3
  -44.8, 105.0, 100.0, 11.6

Entries shown so far with two or more sulfur atoms:
Below each SMILES – Mtb MenB inh, Polio RdRp inh, Polio RdRp inh intensity, Mtb MbtI inh
5: Cc1nc(SCC(=O)O)c2c3c(sc2n1)CCCC3
  3.9, 103.0, 106.0, 24.2
38: O=C(CSc1ccc(S(=O)(=O)N2CCCCC2)cn1)NCc1ccco1
  -14.0, 104.0, 106.0, 9.7
42: CCSc1nc2sc3c(c2c2n[nH]c(=S)n12)CCCC3
  -49.2, 102.0, 106.0, 36.7

(continued)
Below each SMILES – Mtb MenB inh, Polio RdRp inh, Polio RdRp inh intensity, Mtb MbtI inh
46: CCc1ccc(N(CC(=O)NCC2CCCO2)S(C)(=O)=O)cc1 (stereo unspecified)
  -16.2, 103.0, 103.0, 0.6
47: COc1ccc(OC)c(NC(=O)c2ccccc2)c1
  -22.8, 106.0, 101.0, -3.3
48: Nc1cccc(CCc2nc3ccccc3[nH]2)c1
  -7.8, 100.0, 99.0, -1.8
49: Cc1coc2c(Cl)cc(Cl)cc2c1=O
  0.0, 102.0, 105.0, 1.2
50: S=c1[nH]nc(Cc2ccccc2)n1Cc1ccccc1
  -5.8&-12.5, 103.0&103.0, 109.0&102.0, 61.6*!
51: CC1CN(Cc2csc(Nc3ccccc3)n2)CC(C)O1 (stereo unspecified)
  -14.4, 115.0, 117.0, 4.6
52: Cc1ccc2cc(CCC(=O)O)c(=O)[nH]c2c1
  -32.7, 100.0, 102.0, -87.2
53: COc1ccc(S(N)(=O)=O)cc1C(=O)OCC(=O)N1c2ccccc2NC(=O)C1(C)C
  6.8, 106.0, 100.0, -0.4
54: Nc1ccc(Cl)c(C(F)(F)F)c1
  -17.4, 102.0, 102.0, 4.0
55: O=C(c1cccc(Cl)c1Cl)N1CCOCC1
  -17.9, 99.0, 100.0, -3.7
56: COc1ccc(Cn2nnnc2C(c2cccs2)N2CCOCC2)cc1 (stereo unspecified)
  10.4, 98.0, 99.0, 0.6
57: O=C(NCC1CCCO1)C1CCC(=O)N1Cc1ccc(F)cc1 (stereo unspecified)
  -7.8, 101.0, 103.0, -19.4
58: O=C(O)C(Cc1c[nH]c2ccccc12)N1C(=O)C2C3C=CC(C3)C2C1=O (stereo unspecified)
  -29.1, 105.0, 101.0, -7.4
59: Cc1ccc(NC(=O)CN(C)C(=O)CSc2nccn2C)cc1
  -31.8, 103.0, 94.0, -3.3
60: CC(C)(C)NC(=O)CCc1nc(-c2ccccc2)no1
  -6.9, 101.0, 102.0, 8.9
61: COc1ccc(OCc2nnc(SCC(=O)N3C(C)CCCC3C)o2)cc1 (stereo unspecified)
  -9.9, 104.0, 109.0, -3.2
62: N#C/C(=C(/O)CN1CCOCC1)c1nc2ccccc2s1
  0.2, 102.0, 102.0, 8.1
63: CN(CC(=O)Nc1ccccc1)CC(=O)Nc1ccccc1Cl
  -36.0, 104.0, 110.0, -5.8
64: C=CCn1c(SCC(=O)NC(=O)Nc2ccccc2F)nc2ccccc21
  -22.4, /, /, -0.8
65: COc1cccc(Cn2c(-c3cscn3)nc3ccccc32)c1
  -29.4, 103.0, 107.0, -17.4
66: O=C(COC(=O)c1cnccn1)c1ccc(Cl)cc1
  -11.2, 109.0, 110.0, /
67: O=C(NCc1ccc(Cl)cc1)c1ccc(Br)o1
  -4.5, 99.0, 96.0, -4.2
68: C=C(C)C1CC=C(C)/C(=N\NC(=O)Nc2ccccc2)C1 (stereo unspecified)
  -1.7, 101.0, 102.0, -4.7
69: CCOC(=O)c1cn(Cc2ccccc2)c2ccccc2c1=O
  -23.3, 101.0, 102.0, 2.2
70: CCCCn1c(=O)oc2cc(Br)ccc21
  -8.1, 106.0, 103.0, /
71: CCc1c(C)nc(SCC(=O)N2CC(C)OC(C)C2)[nH]c1=O (stereo unspecified)
  -6.4, 104.0, 98.0, -3.4
72: CC(C)c1nnc(SCC(=O)Nc2ccc(Cl)cc2)n1N
  2.7, 104.0, 106.0, 89.2*
73: CC1CC(=O)N(c2ccc(OC(F)(F)F)cc2)C1=O (stereo unspecified)
  -12.2, 106.0, 112.0, -7.2
74: O=C(Cn1c(=O)sc2ccccc21)Nc1cccc(Cl)c1
  -21.4, 98.0, 103.0, -4.0
75: CN(Cc1ccccc1)C(=O)c1ccc(N2CCCC2=O)cc1
  1.4, 102.0, 104.0, -8.3
76: Cc1cc(C(=O)N/N=C/c2c(C)nc3sccn23)c(C)o1
  -4.1, 96.0, 100.0, 1.5
77: CC(C)Cn1c2ccc(Cl)cc2c2nc3ccccc3nc21
  -20.8, 100.0, 102.0, 5.6
78: CCC1(CC)C(=O)NC(=S)N(C)C1=O
  -4.0, 102.0, 102.0, 9.3
79: Cc1cc(C)n(C(=O)c2ccoc2C)n1
  36.0*, 100.0, 101.0, -0.8
80: CC(C)CCN1Cc2ccccc2C1
  4.2, 100.0, 104.0, -5.8
81: N#CC1C(c2cccs2)C(C(N)=O)C(=O)NC1(O)c1ccccc1 (stereo unspecified)
  -26.7, 102.0, 100.0, -16.0
82: Cc1ccc2nc(Nc3cccc(C(F)(F)F)c3)c(C#N)cc2c1
  -4.6, 105.0, 108.0, /
83: Oc1ccc(Cn2cnc3ccccc32)cc1
  -46.4, 102.0, 104.0, -2.5
84: O=C(NCc1ccco1)c1ccccc1C(=O)c1ncc[nH]1
  -10.1, 109.0, 117.0, /
85: CCN1CCCC1CNC(=O)c1ccc(-n2c(-c3ccccc3)cc3c2CCCC3)cc1 (stereo unspecified)
  6.9, 103.0, 98.0, 12.1
86: CCN=c1scc(C)n1/N=C/c1cn(-c2ccccc2)nc1-c1ccc(OC)c(OC)c1
  -56.0, 103.0, 111.0, -6.2
87: O=C(c1ccc(Cl)cc1)N1CCS(=NS(=O)(=O)c2ccc(Cl)cc2)CC1
  -0.8, 103.0, 105.0, -8.6
88: COc1ccc(NC(=O)N(Cc2ccc(C)cc2)Cc2ccccn2)c(OC)c1
  -10.4, 104.0, 109.0, -8.3
89: O=C(NCCN1CCN(Cc2ccccc2C(F)(F)F)CC1)Nc1ccccc1
  -12.0, 101.0, 104.0, -11.2
90: Cc1ccc(C)c(NC(=O)CSc2ncnc3c2oc2ccccc23)c1
  1.1, 98.0, 100.0, -5.7
91: Fc1ccccc1OCc1nnc2n1CCCCC2
  /, 104.0, 99.0, 4.5
92: COc1ccc(C(=O)Nc2nccs2)c(F)c1
  -25.6, 104.0, 111.0, -2.4
93: O=C(Nc1ccccc1)c1ccc(NC2=NC3CS(=O)(=O)CC3S2)cc1 (stereo unspecified)
  -0.6, 100.0, 106.0, -6.2
94: Cc1cc(C)c2c(c1)/C(=N/N)CCC2
  -20.1, 105.0, 106.0, 6.1
95: Cc1cc(=O)oc2c(C)c(OCC(=O)OC(C)C)ccc12
  -12.9, 101.0, 101.0, -184.1

Reformatted as labelled records: part of the list above.
#93 O=C(Nc1ccccc1)c1ccc(NC2=NC3CS(=O)(=O)CC3S2)cc1 (stereo unspecified)
  Mtb MenB inh = -0.6; Polio RdRp inh = 100.0; Polio RdRp inh intensity = 106.0; Mtb MbtI inh = -6.2
#95 Cc1cc(=O)oc2c(C)c(OCC(=O)OC(C)C)ccc12
  Mtb MenB inh = -12.9; Polio RdRp inh = 101.0; Polio RdRp inh intensity = 101.0; Mtb MbtI inh = -184.1
